# Source: PubChem
# HSV replic up: increases HSV replication in cells; HSV replication augmentation in cells, fold increase; maximum fold increase; 0.005% of 220,000 active; AID 1956;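 active = peak rise of 1.5-fold or more in the series; tested in PC3 cells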;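 also: first round at 10 µM; read as green reporter fluorescence; hits show the peak of a series up to 25 µM; 1 = signal of infected wells without compound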
# RGS16-Gao HTS: RGS16-Galphao interaction regulator (human). 0.38% of 220,000 active. O15492+P09471. binding response (% of control), % at 10 µM. bead-based flow cytometry RGS16-Galphao binding, fluorescence; actives lie on both sides;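 active = below 25% or above 175%, edge rows of some plates excepted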;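 also: Galphao activated by GDP with aluminum fluoride before binding; 100% = wells without compound and 0% = beads without RGS; some results beyond the cut were filed as inactive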
# PKD1 inh: PKD1 (human) kinase inhibition; PKD1 kinase fluorescence polarization assay; inhibition, %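 (about 10 µM by stock and volumes)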; 0.056% of 200,000 active;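 active = inhibition of 50% or more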;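 also: controls were vehicle for no effect and a reference inhibitor for full effect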
# Insulin prom inh: TRM-6 insulin promoter activity inhibition | AID 1273 | inhibition, % at 2 µM | TRM-6 cells (human fetal islet line), insulin promoter-eGFP reporter, imaging; reporter expression induced with tamoxifen | 0.9% of 130,000 active;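 active = inhibition above the mean plus 3 SD, with well images judged a real hit on visual review, cut at about 60% in these data, passing the limit was not always enough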
# GALR2 agonist: GALR2 (human) receptor agonism. O43603. GALR2-expressing cells, agonist activation read-out. activation, %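 (tested at 5 µM)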. 0.48% of 140,000 active. AID 803;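 active = above mean plus 3 SD of all compounds, about 5% in these data, not always enough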;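 also: 0% = vehicle buffer wells and 100% = reference agonist at full effect; tested in CHO reporter cells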
# Target sequence (O43603 whole entry, looked up): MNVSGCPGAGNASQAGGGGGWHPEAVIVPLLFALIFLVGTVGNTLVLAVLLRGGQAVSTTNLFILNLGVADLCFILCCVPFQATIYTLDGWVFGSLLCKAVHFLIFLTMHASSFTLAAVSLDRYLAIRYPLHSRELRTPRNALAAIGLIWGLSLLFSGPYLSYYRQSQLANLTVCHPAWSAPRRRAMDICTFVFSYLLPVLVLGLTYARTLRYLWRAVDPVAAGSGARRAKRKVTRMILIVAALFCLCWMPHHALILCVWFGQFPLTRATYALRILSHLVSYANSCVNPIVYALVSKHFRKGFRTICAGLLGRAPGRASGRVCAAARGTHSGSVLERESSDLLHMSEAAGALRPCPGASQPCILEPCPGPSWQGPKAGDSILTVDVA
# Insulin prom inh cell count: further read-out of Insulin prom inh, marked with its call; normalized cell count, %; measured here: cell count, toxicity; reference of the scale not given here;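 cells exposed to compound for 48 h; stained nuclei by imaging scaled within each plate; lower means fewer cells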
# HSV replic up primary fold: also measured in HSV replic up; calls as there; fold increase; compound at 10 µM; measured here: primary screen fold increase 10 uM; tested in PC3 cells;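 GFP signal in the first replicate; 1 = infected wells without compound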
# Active calls of the source: *; i = inactive; · = not tested or not shown.
Structure,HSV replic up,HSV replic up primary fold,RGS16-Gao HTS,PKD1 inh,Insulin prom inh,Insulin prom inh cell count,GALR2 agonist
COc1ccccc1-c1nnc(SCC(=O)OC(C)C)o1,i,1.1,79,-8,-33,149,0.4
Cc1cc(C)c(S(=O)(=O)N2CCCOC2CNC(=O)C(=O)NCc2cccs2)c(C)c1 (stereo not given),i,0.99,107,-16,-44,122,-0.5
Cc1ccc(NC(=S)NC2CCN(Cc3ccccc3)CC2)cc1,i,0.71,95,-8,-14,92,-0.6
CC(C)CNC(=O)c1oc2ccccc2c1COc1ccccc1,i,0.96,111,-5,17,86,-1.0
Cc1onc(-c2ccccc2)c1CNS(=O)(=O)c1ccc(F)cc1F,i,1.1,109,·,·,·,·
O=C1c2ccsc2SCCN1Cc1c(Cl)cccc1Cl,i,1.2,107,-1,-107,94,-1.8
Cc1ccccc1OCCn1cc(/C=C(\C#N)C(=O)NCc2ccco2)c2ccccc21,i,0.83,99,-5,-31,117,1.4
Cc1cccc(C)c1NC(=O)c1cccc(COc2cc(Cl)ccc2Cl)c1,i,0.89,102,-5,-13,94,-0.5
O=C(CSc1nnc(-c2cccnc2)n1-c1ccccc1)N1CCN(c2ccc(F)cc2)CC1,i,1,179,10,-7,57,-0.7
Cc1ccc(NC(=O)CCC(=O)OC(C(=O)c2ccc(C)c(C)c2)c2ccccc2)c(C)c1 (stereo not given),i,0.82,105,-8,27,79,-0.3
CCNC(=O)CC1SC(=Nc2ccc(C)cc2)NC1=O (stereo not given),i,0.96,105,-5,-54,75,-1.9
Cc1cccc(-c2nnc(SCc3ccccc3)o2)c1,i,0.94,114,-6,-10,137,0.3
CCOC(=O)N1CCN(C(=O)CN(c2cccc(C)c2)S(=O)(=O)c2ccccc2)CC1,i,0.97,94,6,·,·,-1.0
O=C(O)c1cc(C(F)(F)F)nc2ccccc12,i,0.99,36,-6,-14,84,-2.2
Cc1ccc(C)c(OCCn2c(=O)c3c(ncn3C3CCCC3)n(Cc3ccccc3)c2=O)c1,i,0.86,108,-4,46,105,-0.9
CCC(C)(C)c1ccc(OCCCC[n+]2cccc(C)c2)c(C(C)(C)CC)c1,i,0.66,101,6,-11,53,·
CCOc1ccc(-c2nnc3ccc(SCC(=O)Nc4cc(C)on4)nn23)cc1,i,0.98,101,-6,·,·,·
CNC(=O)c1[nH]cnc1C(=O)N[C@@H](CC(C)C)C(=O)OC(C)(C)C,i,0.89,102,-2,·,·,·
Nn1c(SCC(=O)Nc2cccc(S(N)(=O)=O)c2)nnc1C1CC1,i,1,100,-5,-22,93,·
COc1ccc(-n2c(C)c(C(C)=O)c(C(C)=O)c2C)cc1OC,i,0.92,101,0,71*,61*,-1.5
COc1cccc(CNCC(=O)N2C(C)CCCC2C)c1 (stereo not given),i,0.98,98,-8,-38,140,-3.1
Cc1c(N=C(N)/N=C(\N)Nc2ccccc2)c(=O)n(-c2ccccc2)n1C,i,1,96,-2,·,·,-2.6
O=C(COC(=O)CNC(=O)c1ccccc1F)Nc1cccnc1Cl,i,0.97,99,-7,-40,51,·
CC(=O)Nc1cccc(NC(=O)CSc2nnc(Cc3cccn3C)n2CCc2ccccc2)c1,i,1.1,102,-1,·,·,-1.5
CC(C)(C)C1CCC(OC(=O)c2ccncc2)CC1 (stereo not given),i,0.94,69,-6,-48,107,-2.9
CC(=NCc1ccco1)c1c(O)n(C2CCCCC2)c(=O)[nH]c1=O,i,0.8,97,-1,67,122,-2.1
COc1ccc(C(=O)NCc2nnc(SCC(=O)Nc3nc4ccc(C)cc4s3)o2)cc1OC,i,0.86,100,0,0,120,-1.3
CCOC(=O)C1=C(CC)Nc2ccccc2N=C1N,i,0.95,114,-3,64,50,·
O=C(CNC(=O)C1CCCCC1)OCc1cc(=O)oc2ccc3ccccc3c12,i,0.89,102,-1,·,·,-0.6
Cn1nc(C(=O)NCC2CCCO2)c2ccccc2c1=O (stereo not given),i,0.96,100,-2,·,·,0.0
Cc1cc2c(C)nc(N/N=C/c3ccccc3)nc2o1,i,0.89,100,11,10,97,0.5
CN(C)S(=O)(=O)N(CC(=O)Nc1ccccc1C(F)(F)F)c1ccccc1,i,0.84,104,-3,-148,63,-2.4
CCOC(=O)CCCSc1nnc(CCCCCN2C(=O)c3cccc4cccc(c34)C2=O)o1,i,0.96,101,-6,·,·,-0.1
O=C(CCl)Nc1ccccc1Sc1ccc(Cl)cc1,i,0.87,100,3,·,·,-2.1
O=c1[nH]c2ccccc2nc1C(Cl)c1ccccc1 (stereo not given),i,0.91,109,3,-9,52,0.0
O=C(N/N=C/C=C/c1ccccc1)c1n[nH]c2c1CCC2,·,·,103,-1,24,81,-1.5
Cc1ccc(N(C(C)C(=O)Nc2cccc(N(C)S(C)(=O)=O)c2)S(C)(=O)=O)cc1 (stereo not given),i,1.1,102,5,·,·,·
Cc1cc(SCC(=O)Nc2ccc(O)cc2)n2nc(C)c(-c3ccccc3)c2n1,i,0.94,106,·,·,·,·
O=[N+]([O-])c1ccc(Cl)c(CN2CCC(O)CC2)c1,i,0.98,107,2,32,108,-0.3
CCCn1c(NC(=O)c2ccco2)nc2ccccc21,i,0.79,110,-2,·,·,-1.4
CN(C)c1nc(N(C)C)nc(N(C#N)CCOc2ccccc2)n1,i,0.95,112,-2,-310,66,-2.6
CN(C)S(=O)(=O)c1ccc(C(=O)Nc2nc(-c3ccccc3)c(C(=O)c3ccccc3)s2)cc1,i,0.95,102,-5,40,63,-0.1
Cc1cccc(C)c1N(CC(O)Cn1c2ccccc2c2ccccc21)S(C)(=O)=O (stereo not given),i,0.92,100,-1,-89,96,-2.3
COC(=O)c1ccc(C(=O)OC)c(NC(=O)COC(=O)c2ccc(OC)c(OC)c2OC)c1,i,0.93,103,-2,·,·,0.1
O=S(=O)(NC1CC1)c1cccc(S(=O)(=O)N2CCCC2)c1,i,0.88,104,3,12,122,0.0

# Profiles, quoted from the list. Values in the order: HSV replic up | HSV replic up primary fold | RGS16-Gao HTS | PKD1 inh | Insulin prom inh | Insulin prom inh cell count | GALR2 agonist
# Shown for Cc1ccc(N(C(C)C(=O)Nc2cccc(N(C)S(C)(=O)=O)c2)S(C)(=O)=O)cc1 (stereo not given) : i | 1.1 | 102 | 5 | · | · | ·
# Shown for COC(=O)c1ccc(C(=O)OC)c(NC(=O)COC(=O)c2ccc(OC)c(OC)c2OC)c1 : i | 0.93 | 103 | -2 | · | · | 0.1
# Shown for CCCn1c(NC(=O)c2ccco2)nc2ccccc21 : i | 0.79 | 110 | -2 | · | · | -1.4

# The listing picks up, repeating the 5 entries before the break.
Structure,HSV replic up,HSV replic up primary fold,RGS16-Gao HTS,PKD1 inh,Insulin prom inh,Insulin prom inh cell count,GALR2 agonist
CN(C)c1nc(N(C)C)nc(N(C#N)CCOc2ccccc2)n1,i,0.95,112,-2,-310,66,-2.6
CN(C)S(=O)(=O)c1ccc(C(=O)Nc2nc(-c3ccccc3)c(C(=O)c3ccccc3)s2)cc1,i,0.95,102,-5,40,63,-0.1
Cc1cccc(C)c1N(CC(O)Cn1c2ccccc2c2ccccc21)S(C)(=O)=O (stereo not given),i,0.92,100,-1,-89,96,-2.3
COC(=O)c1ccc(C(=O)OC)c(NC(=O)COC(=O)c2ccc(OC)c(OC)c2OC)c1,i,0.93,103,-2,·,·,0.1
O=S(=O)(NC1CC1)c1cccc(S(=O)(=O)N2CCCC2)c1,i,0.88,104,3,12,122,0.0
CCn1cc(C(=O)OCc2cccc(Br)c2)c(=O)c2ccc(C)nc21,i,0.65,98,-5,46,125,-4.1
COc1ccc(NC(=O)[C@@H](NC(N)=O)C(C)C)cc1Cl,i,0.96,102,8,-17,61,·
Cn1c(CCNC(=O)c2ccccc2)nc2cc(NC(=O)C3CCCCC3)ccc21,i,0.93,130,-7,14,175,-2.9
CCOC(=O)N1CCN(S(=O)(=O)c2cc(Br)cc3c2N(C(=O)C2CC2)CC3)CC1,·,·,138,-4,·,·,-0.4
COc1ccc(S(=O)(=O)N2CCC(C(=O)Nc3ccccc3C)CC2)c2cccnc12,i,0.95,111,-3,-49,138,-3.0
O=C(c1cc2cc(Cl)cc(Cl)c2oc1=O)N1CCOCC1,i,1.1,32,-4,44,116,-1.9
CCS(=O)(=O)c1ccc(NC(=O)c2ccccc2Cl)c(O)c1,i,0.89,94,0,-94,129,-3.9
Cc1ccc(NC(=O)CN(C)CC(=O)Nc2ccccc2-c2ccccc2)cc1,i,0.89,93,1,·,·,·
O=C(CCCN1C(=O)/C(=C/c2ccccc2Cl)SC1=S)Nc1ccccn1,i,0.67,92,2,-29,101,-0.2
Cc1cccc(N2C(=O)CC(N3CCOCC3)C2=O)c1 (stereo not given),i,0.99,98,-5,25,92,-2.0
COc1ccccc1NC(=O)COC(=O)/C=C/c1ccc2c(c1)OCO2,i,1,103,-4,·,·,·
COc1ccc(NC(=O)Cn2nc([N+](=O)[O-])c(Cl)c2C)cc1OC,i,0.94,87,·,·,·,·
N=c1n(CCO)c2ccccc2n1CCOc1ccccc1,i,0.78,102,-38,-14,78,-1.9
CC(C)c1ccc2oc(=O)cc(CN3CCN(c4ccccc4)CC3)c2c1,i,0.98,87,-5,10,62,0.0
CC(C)C(=O)Nc1cc(C(F)(F)F)ccc1N1CCOCC1,i,0.83,97,-3,19,116,-1.1
CCCCCC(=O)NNC(=O)c1ccc(F)cc1,i,0.96,105,-12,11,123,-1.6
O=C(CCNS(=O)(=O)c1ccccc1C(F)(F)F)NCc1ccc2c(c1)OCO2,i,0.74,88,-2,-11,132,-1.9
COc1ccc(-c2nc(C3CCCCC3)no2)cc1OC,i,0.98,102,0,45,162,1.5
Cc1ccccc1NC(=O)C1CCCN1C(=O)NC1CCCCC1 (stereo not given),i,0.93,104,-3,-9,72,-1.2
O=[N+]([O-])c1cccc(-c2ccc(/C=N/NC(=S)NCc3ccco3)o2)c1,i,1,101,·,·,·,·
Cc1ccc(C)c(OCCn2cc(/C=C(\C#N)C(=O)NCc3cccs3)c3ccccc32)c1,i,0.73,113,-4,27,159,-0.6
CC(=O)c1ccc(N2CCN(C(=O)Cn3c(=S)[nH]c4ncccc4c3=O)CC2)cc1,i,0.87,100,-5,·,·,·
CCCn1c(=O)c2ccccc2n2c(SCc3cc(=O)n4ccsc4n3)nnc12,·,·,·,-4,-3,161,1.5
